2A Renilla: FMDV 2A StopGo reporter, Renilla signal; Potency, µM (titrated, usually from 57.5 µM), inactives show at the top dose signal change, negative = less light; actives 0.32% (n = 120,000); HEK cells with a luciferase reporter of 2A StopGo recoding; AID 1745857; active means well fitted falling curve with a large enough effect; inconclusive means small, poorly fitted or top-dose-only effect; inactive means no such curve, though single readings can be large or run the other way; further: nearly all actives have a fitted effect of over 55% in size; overnight with compound
StopGo FLuc: lowers the firefly signal of an FMDV 2A StopGo reporter. HEK cells with a luciferase reporter of 2A StopGo recoding. Potency, µM (series often up to 57.5 µM), without a hit: at the highest dose signal change, negative = less light. actives 0.23% (n = 120,000). AID 1745856; active = well fitted falling curve with a large enough effect; inconclusive = small, poorly fitted or top-dose-only effect; inactive = no such curve, though single readings can be large or run the other way; further: nearly all actives have a fitted effect of over 60% in size; overnight with compound
Numbers without * were called inactive; ? = inconclusive; [ ] = remark or other dose. On the % scale 0 is the no-effect control and ±100 the full control effect; potency means the concentration at half of the fitted maximal effect.

Order of results: 2A Renilla | StopGo FLuc
Cc1ccc(C)c(NC(=O)CSc2nc(=O)n(Cc3ccncc3)c3c2CCC3)c1
  46%[activator] | -9%
O=C(Cn1c(=O)n(CCCS(=O)(=O)C2CCCCC2)c(=O)c2ccccc21)Nc1ccc(F)c(Cl)c1
  -2% | -12%
CCCCC1CCC(C(=O)NCc2cccc(NC(=O)C(C)C)c2)CC1 (stereo unspecified)
  10% | -7%
Cc1ccc(C(=O)NC2CC2)cc1S(=O)(=O)N1CCCC1
  2% | -6%
Cc1nn(-c2ccccc2)c(OC(=O)c2ccccc2Cl)c1S(=O)(=O)c1ccccc1
  29% | 17%
N#CC(C(=O)CN1CCCC1)c1ccccc1 (stereo unspecified)
  -6% | -3%
Cc1[nH]c2ccc(Cl)cc2c1CCN(Cc1cccs1)C(=S)NC(C)(C)C
  176%[activator] | -2%
Cc1ccc(Cl)cc1N1CCN(C(=O)c2cnc(N3CCOCC3)c3ccccc23)CC1
  0% | ?
Cc1ccc(S(=O)(=O)NCC(c2ccco2)N2CCN(c3ccccc3F)CC2)cc1 (stereo unspecified)
  47%[activator] | -22%
CCCCn1cnc2c1c(=O)n(CC(=O)Nc1cccc(F)c1)c(=O)n2CC(C)C
  0% | -16%
CCCN1CCN(C(=O)C2CCN(S(=O)(=O)c3ccc4c(ccn4CC)c3)CC2)CC1
  5% | 1%
Cc1ccsc1C(=O)N(Cc1ccncc1)C1CC1
  -9% | -12%
COc1ccc(-c2ocnc2C(=O)Nc2c(C)cc(C)cc2C)cc1
  5% | 0%
COc1cccc(CNC(=O)c2ccc3c(c2)nc2n3CCC(C)C2)c1OC (stereo unspecified)
  -12% | -6%
CN(C)CCCN(C(=O)c1ccc2c(c1)OCCO2)c1nc2ccccc2s1
  -5% | 50%[activator]
COc1cc(C(=O)Nc2ccccc2OCC2CCCO2)cc(OC)c1OC (stereo unspecified)
  7% | 3%
COc1ccc(S(=O)(=O)N2CCN(c3cccc(C)c3C)CC2)c2ccccc12
  60%[activator] | 9%
O=C(NCc1ccco1)c1cc(-c2cccnc2)nc2ccc(Cl)cc12
  5% | 14%
O=C(c1ccc(Nc2nc3ccccc3n3nnnc23)cc1)N1CCN(c2cccc(C(F)(F)F)c2)CC1
  -11% | 4%
O=C(NCCc1ccc(Cl)cc1)c1ccc(Nc2nc3ccccc3n3nnnc23)cc1
  -4% | 11%
CCCCCn1c(CCCNC(=O)c2cccc(C)c2)nc2ccccc21
  10% | -23%
CCN(CC(C)C#N)C(=O)C1CCCC1 (stereo unspecified)
  4% | -7%
CCn1c2c(c(=O)n3ncc(C(=O)Nc4cc(Cl)ccc4OC)c13)CN(Cc1ccc(OC)cc1)CC2
  11% | -21%
CCCCN1C[C@@H](COCc2ccccc2)Oc2cc(F)ccc2S1(=O)=O
  86%[activator] | -1%
Cc1ccc(F)cc1NC(=O)CCSc1nc(-c2ccco2)cc(C(F)(F)F)n1
  -9% | -5%
CCOC(=O)c1sc(=S)n(-c2cc(C)cc(C)c2)c1N
  3% | -5%
Cn1c(=O)n(C)c2cc(N3CCCCC3)c(NC(=O)c3ccc(C(C)(C)C)cc3)cc21
  -6% | -7%
CC1=C(C#N)C(c2ccc(C(C)C)cc2)C(C#N)=C(C)N1
  26% | 15%
O=C(CCc1ccco1)NC1CCCC1
  -6% | 0%
N#Cc1nc(C2CC2)oc1N1CCN(C(=O)c2ccccc2)CC1
  -8% | -5%
Cc1ccc2nc(-c3ccc(C)c(NC(=O)c4ccc5c(c4)OCO5)c3)oc2c1
  -11% | 0%
Cc1cc(OC(C)C(=O)NCCCN2CCOCC2)c2c(C)cc(=O)oc2c1 (stereo unspecified)
  -9% | 4%
CC1CC(=O)Nc2ccccc2N1C(=O)c1ccccc1 (stereo unspecified)
  -6% | -3%
O=C(c1cccs1)N(Cc1ccccc1)Cc1ccccc1
  56%[activator] | 12%
O=C(Nc1ccncc1)C1CCN(c2nc3ccccc3o2)CC1
  16µM* | ?
Cc1ccccc1CSc1nc(-c2cccc(F)c2)nc2c1Cc1c(CO)cnc(C)c1O2
  3% | -20%
COc1cccc(CNC(=O)c2c(C)oc3nc(C)nc(N4CCOCC4)c23)c1
  -5% | -12%
COc1cc(C(=O)Nc2ccc(Cl)cc2)nc2ccc(Cl)cc12
  -6% | 5%
Cc1cc2ccccc2n1CC(=O)N1CCCCCC1
  -7% | -1%
CCN(CC)C(=O)C(=O)c1c(-c2ccccc2)n(C)c2ccccc12
  92%[activator] | -4%

Molecules above containing two or more sulfur atoms:
Order of results: 2A Renilla | StopGo FLuc
Cc1[nH]c2ccc(Cl)cc2c1CCN(Cc1cccs1)C(=S)NC(C)(C)C
  176%[activator] | -2%
CCOC(=O)c1sc(=S)n(-c2cc(C)cc(C)c2)c1N
  3% | -5%

More structures follow.
Order of results: 2A Renilla | StopGo FLuc
CCOC(=O)/C(C#N)=C/c1cc(Br)ccc1OCc1c(F)cccc1Cl
  -4% | 0%
O=c1oc2ccccc2cc1S(=O)(=O)N1CCc2ccccc2C1
  8% | 8%
CSCCC(NC(=O)C1CCC(C)CC1)C(=O)Nc1ccc2c(c1)OCO2 (stereo unspecified)
  38%[activator] | 120%[activator]
COc1ccc2c(c1)CNC2CS(=O)(=O)NCCc1ccccc1 (stereo unspecified)
  45%[activator] | 16%
C=C(C)CC1Cc2c(Br)cccc2C(CC(=C)C)N1 (stereo unspecified)
  7% | -7%
CSc1ncc(C(=O)N2CCN(c3cccc(C(F)(F)F)c3)CC2)c(C)n1
  -8% | -12%
COc1ccccc1NC(=O)C1=C(C)Nc2c(C(=O)Nc3ccccc3)cnn2C1c1ccccc1F (stereo unspecified)
  22% | 13%
O=C(c1cc2cc([N+](=O)[O-])ccc2oc1=O)N1CCN(c2ccccc2F)CC1
  -12% | 3%
O=C(c1cc(-c2csc(Nc3ccccc3C(F)(F)F)n2)c[nH]1)N1CCCC1
  51%[activator] | 88%[activator]
COc1cc(OC)cc(-c2nc3nc(C)c(CCC(=O)Nc4ccc(C)cc4C)c(C)n3n2)c1
  -5% | -16%
C=CCNC(=O)C(C#N)c1nc2ccccc2nc1N1CCC(C(=O)OCC)CC1 (stereo unspecified)
  22% | 19%
O=C(CSc1nc(=O)n(Cc2cccnc2)c2c1CCC2)N1CCCC1
  7% | 3%
CCOC(=O)C1=C(CN2CCN(c3ccccn3)CC2)NC(=O)NC1c1cccc(OC)c1OC (stereo unspecified)
  -6% | -4%
COCc1nn2c(=O)c(NC(=O)c3ccc(F)cc3)cnc2s1
  -10% | 45%[activator]
COc1ccccc1NC(=O)N(Cc1ccc2c(c1)OCO2)C1CCN(Cc2ccccc2)CC1
  15% | -23%
COc1cc(C2NC(=O)N(C)C(C)=C2C(=O)OCCC(C)C)cc(Cl)c1O (stereo unspecified)
  -4% | -6%
Fc1ccc(-c2nc(-c3ccc(Br)o3)no2)cc1
  29% | 176%[activator]
COc1ccc(-n2nnc3c(=O)n(Cc4nc(-c5ccccc5C)no4)cnc32)cc1
  -1% | 6%
O=C(c1cccc(Cl)c1)N1c2nc(-c3ccco3)nn2C2(CCCCC2)[C@@H]2CCCC[C@@H]21
  8% | -9%
COc1ccccc1N1CCN(S(=O)(=O)c2cc3[nH]c(=O)c(=O)[nH]c3cc2C)CC1
  -9% | -15%
CC(=O)NCCOC(=O)c1nn(Cc2ccccc2)c(=O)c2ccccc12
  46%[activator] | 56%[activator]
O=C(Nc1cnc2ccccc2c1)c1ccc(N2CCCCC2)c([N+](=O)[O-])c1
  0% | -2%
Cc1ccc(N2C(=O)CS(=O)(=O)C23C(=O)N(Cc2ccc(Cl)cc2)c2ccccc23)cc1C (stereo unspecified)
  ? | 0%
Cn1c(=O)[nH]c(=O)c2c1nc(N1CCC(Cc3ccccc3)CC1)n2CC(=O)O
  -13% | -10%
CCN(CC(=O)NC(C)C)CC(=O)N1c2ccccc2OCC1c1ccccc1 (stereo unspecified)
  10% | 9%
CCc1cccc(NC(=O)CCn2nc(C)cc2C)c1
  -1% | -2%
Cc1cc(C)n(C(C)CC(=O)NCc2ccccc2C)n1 (stereo unspecified)
  -2% | -13%
O=C(Cn1cc(S(=O)(=O)N2CCCC2)ccc1=O)c1c[nH]c2ccccc12
  10% | 20%
COC(=O)c1ccccc1NC(=O)c1sc2nc(C)cc(C)c2c1NC(=O)c1ccccc1OC
  -26% | 0%
COc1ccc(S(=O)(=O)NCC2CCC(C(=O)NCC(=O)NCc3ccccn3)CC2)cc1 (stereo unspecified)
  4% | 4%
C[C@H](NC(=O)c1ccccc1)C(=O)O
  8% | 12%
Cc1ccc(-c2nc3scc(CCNS(=O)(=O)c4ccc(C)c(C)c4)n3n2)cc1
  242%[activator] | -1%
CCOc1ccc2oc(=O)cc(CN3CCN(c4ccccc4OC)CC3)c2c1
  -4% | -7%
CCC1CCCCN1S(=O)(=O)c1ccc(NC(=O)c2nc(SC)ncc2Cl)cc1 (stereo unspecified)
  0% | -6%
CN(C(=O)CSc1nc(N2CCOCC2)c2c(c1C#N)CCCC2)c1ccccc1
  -6% | -6%
CCOc1ccc(CN(C)C(=O)Cn2cnc3c(cnn3C)c2=O)cc1
  -3% | 12%
O=C(COCc1cc(-c2cccs2)on1)Nc1cc(Cl)ccc1O
  27% | -17%
COc1ccc2c(c1)c(N1CCCC1=O)c(C(=O)Nc1ccc(OC)c(Cl)c1)n2C
  -4% | 2%
NC(=O)c1cc(S(=O)(=O)NCC2CCC(C(=O)Nc3cccc(Cl)c3)CC2)cs1 (stereo unspecified)
  -8% | 9%
CCOc1ccc2c3c(cccc13)C(=O)C=C2C
  8% | 0%
CCc1sc(C(=O)N2CCCCCC2)cc1Br
  52%[activator] | 75%[activator]
COc1cc(C(=O)O/N=C(\C)c2ccc(Cl)cc2)cc(OC)c1OC
  2% | 23%
Cc1ccccc1Nc1nc(NC2CCCCC2)nc2c1cnn2C
  8% | -7%
O=C(Nc1ccc(F)cc1)c1oc2ccccc2c1NC(=O)C12CC3CC(CC(C3)C1)C2
  -10% | -20%
CCOc1ccc(NC(=O)c2nc3ccccc3nc2N2CCN(C)CC2)cc1
  -19% | -9%
Cc1ccc(CN2C(=O)c3ccccc3C2C(=O)NC2CCCCCC2)cc1 (stereo unspecified)
  1% | -6%
N#CCNC(=O)c1ccc2c(c1)OCCCO2
  8% | 32%[activator]
CC(C)OC(=O)c1cccc(C(=O)OC(C)C)n1
  5% | 15%
COc1cccc(C(=O)OCc2cccc(C#N)c2)c1OC
  14% | 19%
Cc1ccc(-n2ncc3c(Nc4cccc(Cl)c4)ncnc32)c(C)c1
  -8% | 16%
COc1cccc(/C=C/c2onc(C)c2S(=O)(=O)N2CCC(C(=O)N3CCCCC3)CC2)c1
  -11% | -7%
CCOc1ccc(NC(=O)Cn2c(=O)cc(C)c3c(C)nn(C)c32)cc1
  -15% | 22%
CCCc1ccc(NC(=O)c2n[nH]c(=O)c3ccccc23)cc1
  -14% | 98%[activator]
COc1ccccc1CCNC(=O)Cn1ccc2cc(S(=O)(=O)N3CCCCCC3)ccc21
  151%[activator] | -6%
CCc1cccc(CC)c1NC(=O)c1cc(C)nc2ccccc12
  1% | 3%
COC(=O)c1ccc(NC(=O)CCc2c(C)nc3c(c(C)nn3-c3ccc(C)cc3)c2C)cc1
  -6% | 0%
CCN(CC)C(=O)Cn1nc(-c2ccc(C)cc2)c2ccccc2c1=O
  -7% | 8%
Cc1ccc(C2=NN(C(=O)CCC(=O)O)C(c3ccc4nccnc4c3)C2)cc1 (stereo unspecified)
  -5% | 25%
Cc1c(Cl)cccc1NC(=O)c1nn(C)c(=O)c2ccccc12
  -8% | -3%
O=C(NCc1cccc(Cl)c1)c1ccc(CS(=O)Cc2ccccc2Cl)o1 (stereo unspecified)
  71%[activator] | -13%

Continued:
Order of results: 2A Renilla | StopGo FLuc
Cn1c(=O)[nH]c2cc(-c3noc(-c4ccc(F)cc4)n3)ccc21
  -3% | 42%[activator]
COc1ccc(-c2csc(NCC(C)C)n2)cc1OC
  15% | 139%[activator]
CCOC(=O)Cc1cc(=O)n2[nH]c(NCc3ccc(OC)cc3)nc2n1
  10% | 15%
CC(C)N1Cc2nnn(Cc3ccc(F)cc3)c2-c2cc(F)ccc2S1(=O)=O
  51%[activator] | 8%
CCN1CCC(NC(=O)c2cccs2)CC1
  -9% | 5%
COc1ccccc1C1=NOC(C(=O)Nc2cc(C)nn2-c2ccccc2)C1 (stereo unspecified)
  27% | -2%
COc1ccccc1N1CCN(C(=O)c2cc3c(s2)-c2ccccc2OC3)CC1
  -8% | 10%
CCCNC(=O)NC(=O)COC(=O)c1cn(C)c2ccccc12
  9% | 10%
CCCC(=O)Nc1ccc(-c2csc(N)n2)cc1
  11% | 175%[activator]
COc1ccccc1N1CCN(Cc2cc(=O)oc3ccc(Cl)cc23)CC1
  -13% | 0%

Shown as comma-separated lines: entries from further up
SMILES,2A Renilla,StopGo FLuc
CCOC(=O)Cc1cc(=O)n2[nH]c(NCc3ccc(OC)cc3)nc2n1,10%,15%
CC(C)N1Cc2nnn(Cc3ccc(F)cc3)c2-c2cc(F)ccc2S1(=O)=O,51%[activator],8%
CCN1CCC(NC(=O)c2cccs2)CC1,-9%,5%
COc1ccccc1C1=NOC(C(=O)Nc2cc(C)nn2-c2ccccc2)C1 (stereo unspecified),27%,-2%
COc1ccccc1N1CCN(C(=O)c2cc3c(s2)-c2ccccc2OC3)CC1,-8%,10%

Screening data (PubChem)

An excerpt; the hit share may differ from the screen's.
